# MenB inh – M. tuberculosis MenB inhibitors, primary screen, biochemical, absorbance; 1,4-dihydroxy-2-naphthoyl-CoA synthase (Mycobacterium tuberculosis (strain ATCC 25618 / …; MenB enzyme assay, absorbance read-out; some hits fall short of the stated cut; inhibition, %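 (about 12 µg/mL by stock and volumes)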; 0.43% of 100,000 active;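 active = mean of two replicates above 30%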;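 also: 0% = no compound and 100% = wells with inactive enzyme; the first replicate is given; strong numbers were not always called active; inactives centre near -10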
# Target sequence (P9WNP5 whole entry, looked up): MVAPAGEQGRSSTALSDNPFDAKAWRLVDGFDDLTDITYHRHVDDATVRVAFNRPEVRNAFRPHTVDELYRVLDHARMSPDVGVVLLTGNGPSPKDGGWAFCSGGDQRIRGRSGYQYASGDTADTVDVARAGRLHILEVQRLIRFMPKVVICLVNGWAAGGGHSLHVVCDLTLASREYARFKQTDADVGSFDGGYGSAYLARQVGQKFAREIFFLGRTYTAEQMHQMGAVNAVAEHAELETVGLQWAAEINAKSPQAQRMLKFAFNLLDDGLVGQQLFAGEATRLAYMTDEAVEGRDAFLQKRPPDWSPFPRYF
# Mtb MbtI inh – MbtI salicylate synthase inhibitors, primary screen, biochemical, fluorescence intensity; 0.89% of 100,000 active; P9WFX0; purified MbtI enzyme, fluorescence intensity read-out; inhibition, %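 (about 17 µg/mL by stock and volumes)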;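 active = above 50% in both replicates, above 80% if mildly self-fluorescent; inactive = the rest, strongly fluorescent compounds included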;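 also: 0% = mean of negative and 100% = mean of positive controls; one replicate is shown; some compounds called inactive have numbers as strong as hits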
# Polio RdRp inh – poliovirus RdRp elongation inhibitors, primary screen, biochemical, fluorescence polarization, total intensity; AID 588519, 2011; % elongation, % (compound at 16.7 µg/mL); poliovirus polymerase elongation; hits give low values; Genome polyprotein (Poliovirus type 1 (strain Mahoney)), P03300; 0.66% of 150,000 active; in the data active = % elongation below about 90%; also: some results filed as inactive read as strong as hits
# Target sequence (P03300 1749-2209 limits assumed): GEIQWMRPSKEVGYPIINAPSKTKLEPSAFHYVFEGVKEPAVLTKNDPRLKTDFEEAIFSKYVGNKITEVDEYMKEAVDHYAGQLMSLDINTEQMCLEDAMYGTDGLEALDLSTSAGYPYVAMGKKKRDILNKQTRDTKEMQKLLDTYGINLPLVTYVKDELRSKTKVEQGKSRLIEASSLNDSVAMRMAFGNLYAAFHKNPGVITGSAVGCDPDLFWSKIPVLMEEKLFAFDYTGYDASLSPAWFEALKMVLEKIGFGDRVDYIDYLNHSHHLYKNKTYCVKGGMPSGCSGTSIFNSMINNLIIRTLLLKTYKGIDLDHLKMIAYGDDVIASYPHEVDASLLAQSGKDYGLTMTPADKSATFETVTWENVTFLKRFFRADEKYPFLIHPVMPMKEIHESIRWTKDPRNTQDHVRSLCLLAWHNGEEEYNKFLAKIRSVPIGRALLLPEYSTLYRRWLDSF
# Polio RdRp inh intensity – recorded beside Polio RdRp inh, whose call it bears; % elongation; measured here: total intensity read-out; formula for this scale not given here;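 total fluorescence in place of polarization; lower means less elongation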
# * marks the source's active call; other numbers are inactive results; i = inactive; nt = not tested or not shown.
# Start of the listing, in advance:
nr	molecule	MenB inh	Polio RdRp inh	Polio RdRp inh intensity	Mtb MbtI inh
1	CC(C)N(C(=O)CSc1nnc(-c2ccc3c(c2)OCO3)n1C)C(C)C	-18	101	103	-3
2	COc1ccc(S(=O)(=O)N/N=C(/C2CCCCC2)C(F)(F)F)cc1	0	101	100	-24
3	Cc1cccc(N2C(=O)CC(Sc3ncccc3C(=O)O)C2=O)c1C (configuration not stated)	0	102	103	34
4	CCCCC1(COC(=O)Nc2cccc(Cl)c2)C(=O)N(c2ccccc2)N(c2ccccc2)C1=O	-23	107	110	-16
5	COc1ccc(OC)c(NC(=O)CC(Cc2ccccc2OC)C(=O)O)c1 (configuration not stated)	-31	104	102	2
6	COC(=O)c1c(C)n(-c2ccc(OC)cc2)c2ccc(O)cc12	-2	101	100	-65

# Main list, repeating the preview:
nr	molecule	MenB inh	Polio RdRp inh	Polio RdRp inh intensity	Mtb MbtI inh
1	CC(C)N(C(=O)CSc1nnc(-c2ccc3c(c2)OCO3)n1C)C(C)C	-18	101	103	-3
2	COc1ccc(S(=O)(=O)N/N=C(/C2CCCCC2)C(F)(F)F)cc1	0	101	100	-24
3	Cc1cccc(N2C(=O)CC(Sc3ncccc3C(=O)O)C2=O)c1C (configuration not stated)	0	102	103	34
4	CCCCC1(COC(=O)Nc2cccc(Cl)c2)C(=O)N(c2ccccc2)N(c2ccccc2)C1=O	-23	107	110	-16
5	COc1ccc(OC)c(NC(=O)CC(Cc2ccccc2OC)C(=O)O)c1 (configuration not stated)	-31	104	102	2
6	COC(=O)c1c(C)n(-c2ccc(OC)cc2)c2ccc(O)cc12	-2	101	100	-65
7	Cc1cc(C)n(/N=C/c2ccccc2O)c(=O)c1	-23	101	108	1
8	C#CCn1cc(/C=N\NC(=O)COc2cccc3cccnc23)c2ccccc21	7	102	102	18
9	CC1CCCCN1C(=O)c1cnc2n(c1=O)CCS2 (configuration not stated)	-19	102	102	3
10	CCc1ccc(NC(=O)CSC2=C(C#N)C(c3ccco3)C(C(N)=O)=C(C)N2)cc1 (configuration not stated)	9	103	102	9
11	O=C(CC1CCCCC1)NCCN1CCOCC1	-6	101	102	-6
12	O=S(=O)(NCC1COc2ccccc2O1)c1ccc(N2CCOCC2)nc1 (configuration not stated)	-15	103	111	-7
13	O=C(O)c1ccccc1C(=O)OCCN1CCOCC1	-17	101	101	14
14	O=c1c(-c2nnc3c(Cl)nc4ccccc4n23)coc2ccccc12	-13	116	128	nt
15	COC(=O)/C=C1\SC(NC(=O)c2ccccc2)NC1=O (configuration not stated)	-5	97	100	9
16	COc1ccc(CN2CCNCC2CCO)c(C)c1C (configuration not stated)	-8	100	103	0
17	CC(C)CCNC(=O)c1ccco1	-52	101	103	-17
18	O=C(O)CCC(=O)c1cccs1	nt	82*	78*	-4
19	Cc1cccc(OCC(=O)NC2CCCC2)c1	-19	102	103	3
20	Cc1nc2nc(SCC(=O)N3CCC4(CC3)OCCO4)nn2c(C)c1Cc1ccccc1Cl	-6	102	104	8
21	COc1ccc(CN2CC(C)OC(C)C2)cc1 (configuration not stated)	6	98	103	-1
22	CN(C)C(CN)c1ccco1 (configuration not stated)	14	101	103	7
23	Cc1oc2nc[nH]c(=O)c2c1C(=O)NC1CCCCCC1	-26	121	139	-18
24	OC(c1ccccc1)c1ccc(Cl)s1 (configuration not stated)	-14	101	102	2
25	Nc1ccc(-c2nc3c(Cl)cccc3[nH]2)cc1	-10	101	101	i
26	CCOC(=O)Nc1ccc(Cl)c(Cl)c1	-15	105	106	nt
27	Cc1ccc(C(=O)C2OC(=O)C(C)(C)C(=O)C2(C)C)cc1 (configuration not stated)	1	108	114	nt
28	CC(C)N1CCc2nc(SCC(=O)Nc3cccc(Cl)c3)[nH]c(=O)c2C1	-9	101	104	-20
29	COc1ccc(SCC(=O)O)cc1	nt	105	108	-9
30	O=C(c1ccc(F)cc1F)N1CCN(C(=O)c2ccc(F)cc2F)CC1	nt	102	98	-3
31	Nc1c(C(=O)NCC2CCCO2)sc2ccc(S(=O)(=O)N3CCCCC3)cc12 (configuration not stated)	-4	104	108	-19
32	NC(=S)c1ccc(-c2ccno2)s1	-35	100	105	8
33	Cc1nc2ccccc2nc(C)c1=NOCC(=O)Nc1ccc(S(=O)(=O)N2CCOCC2)cc1	3	103	96	5
34	CC(COc1ccc2c(c1)OCO2)NC(=O)c1c(F)cccc1F (configuration not stated)	-9	102	104	-16
35	O=C(c1c(O)c2ccccc2oc1=O)C1CC1	3	102	104	-23
36	Cc1ccc2[nH]c3c(=O)n(CC(=O)N4CC(C)CC(C)C4)ncc3c2c1 (configuration not stated)	3	102	98	101
37	O=C(COC(=O)C1CCCCC1C(=O)N1CCc2ccccc21)NCc1ccco1 (configuration not stated)	-18	104	98	12
38	NCc1cccc(Oc2ccccc2)c1	20	103	104	10
39	O=C(NCCOc1ccccc1-c1ccccc1)c1cccc2ccccc12	-35	105	112	nt
40	CCOC(=O)c1c(NC(=O)c2ccccc2C(=O)O)sc2c1CCCC2	4	100	100	-1
41	COC(=O)CSc1nnc(Nc2ccccc2C)s1	3	104	105	24
42	Oc1cc2ccsc2c2ccccc12	-212	101	101	15
43	O=S(=O)(c1ccccc1C(F)(F)F)N1CCN(c2ncccn2)CC1	13	98	95	24
44	COC(=O)c1c(C)[nH]c(C)c1C(=O)c1ccccc1Cc1ccccc1	nt	100	103	-6
45	O=C(N/N=C/c1ccsc1)c1c[nH]c2ccccc12	-28	98	102	17
46	O=C(COC(=O)c1ccco1)Nc1nc2ccccc2s1	-22	97	99	10
47	CCOC(=O)c1ccc(NC(=O)C(CC)Sc2nnc(C)n3c2cc2occc23)cc1 (configuration not stated)	-38	102	102	-3
48	CCC(NC(C)C)C(O)c1ccc(O)c(O)c1 (configuration not stated)	2	100	100	1
49	O=c1c2cnn(-c3ccccc3)c2ncn1C/C=C/c1ccccc1	4	103	105	-7
50	CCCOC(=O)Nc1sc2c(c1C(N)=O)CCC2	-18	109	110	nt
51	CCSC1=C(C#N)C(=N)n2c1cc1c2CCCC1	-3	106	116	nt
52	C=CCNC(=O)c1cc(-c2ccc(Cl)cc2Cl)oc1C	-1	102	102	1
53	COC(=O)c1c(C)[nH]c(C(=O)C(C)N(C)Cc2ccccc2OC)c1C (configuration not stated)	2	102	98	7
54	CN(C)c1ccc(C=NCC2COc3ccccc3O2)cc1 (configuration not stated)	4	104	108	1
55	Cc1ccc(NC(=O)N2C(=O)C3(OCCO3)c3ccccc32)cc1	18	101	105	-4
56	O=C(NCc1ccc(Cl)cc1)c1cccnc1OCC(F)(F)F	-9	101	100	-1
57	O=C(NCCSc1ncc(-c2ccccc2)[nH]1)c1ccco1	-5	101	100	-1
58	CC(C)(C)C1CCC(C(=O)OCC(=O)Nc2ccc3[nH]c(=O)[nH]c3c2)CC1 (configuration not stated)	5	103	105	-6
59	NC(=O)NCCC1=CCCCC1	6	106	113	-21
60	O=C(O)c1ccncc1Br	10	99	103	11

# New compounds follow
nr	molecule	MenB inh	Polio RdRp inh	Polio RdRp inh intensity	Mtb MbtI inh
61	Cn1c(C(=O)O)c(S(=O)(=O)c2ccc(Cl)cc2)c2ccccc21	9	103	101	6
62	O=C(Cc1ccc(F)cc1)N/N=C/c1ccc(-c2ccc(Cl)c(C(=O)O)c2)o1	1	102	103	-36
63	CCn1c(=NC(=O)c2ccc(S(=O)(=O)N3CCCC3)cc2)sc2c3ccccc3ccc21	5	103	102	-14
64	CCC(=O)N=C1SC2CS(=O)(=O)CC2N1c1ccc(F)c(Cl)c1 (configuration not stated)	2	101	102	-7
65	CC1CC(=O)Nc2ccccc2N1C(=O)Cn1ncc(Cl)c(Cl)c1=O (configuration not stated)	-19	105	114	3
66	CCOP(C)(=O)/C(C#N)=C(\O)c1cc(OC)c(OC)c(OC)c1 (configuration not stated)	-2	102	106	1
67	COc1cccc(CNC(=O)c2ccc(Nc3nc4ccccc4n4nnnc34)cc2)c1	1	103	110	105
68	CN(C)C(=O)Nc1ccc(C(C)(C)C)cc1	-22	102	93	4
69	O=c1[nH]c2ccc(NCc3ccccc3C(F)(F)F)cc2[nH]1	-11	100	101	8
70	CCCCC(=O)Cc1ccco1	-110	106	112	-3
71	NC(=O)c1ccccc1NC(=O)C1COc2ccccc2O1 (configuration not stated)	-17	104	108	nt
72	NC(=O)CCNC(=O)c1ccc(Cl)cc1	-25	101	84	-26
73	O=C(Nc1cnn(Cc2ccc(F)cc2)c1)c1cnccn1	-2	102	103	-201
74	O=C(COC(=O)c1cccs1)NCC1CCCCC1	nt	101	99	-10
75	O=C(COC(=O)c1ccc(N2CCCC2=O)cc1)c1ccc2c(c1)OCCO2	-20	108	110	-1
76	CCCN(Cc1cccs1)C(=O)Nc1cccc(C)c1	9	100	105	-12
77	O=C(CN1C(=O)c2ccccc2C1=O)OCCCn1c(=O)[nH]c2ccccc21	-29	101	103	-3
78	Cc1[nH]c2ccccc2c(=O)c1CN1CCCCC1	-10	103	108	0
79	Cc1ccccc1NC(=S)N1CCCCC1	10	101	103	-11
80	OCc1ccccc1CNCc1ccccc1	-13	107	113	nt

# The last 5 entries of the part before are carried over, then new ones follow:
nr	molecule	MenB inh	Polio RdRp inh	Polio RdRp inh intensity	Mtb MbtI inh
76	CCCN(Cc1cccs1)C(=O)Nc1cccc(C)c1	9	100	105	-12
77	O=C(CN1C(=O)c2ccccc2C1=O)OCCCn1c(=O)[nH]c2ccccc21	-29	101	103	-3
78	Cc1[nH]c2ccccc2c(=O)c1CN1CCCCC1	-10	103	108	0
79	Cc1ccccc1NC(=S)N1CCCCC1	10	101	103	-11
80	OCc1ccccc1CNCc1ccccc1	-13	107	113	nt
81	Cc1cccc(NC(=O)C2C3C=CC4(O3)C2C(=O)N(Cc2cccnc2)C4C(=O)NC2CCCC(C)C2C)c1 (configuration not stated)	-11	103	102	-10
82	COC(=O)C(Cc1c[nH]c2ccccc12)NC(=O)C12CC3CCC1CC(C3)C2 (configuration not stated)	-10	105	99	nt
83	Cc1ccc(S(=O)(=O)NC2(C(F)(F)F)C(=O)N(Cc3ccco3)C3=C2C(=O)CC(C)(C)C3)cc1 (configuration not stated)	10	101	100	5
84	CC(=O)Nc1ccccc1-c1ccccc1	-18	102	103	-16
85	O=C(NC1CCCCC1)c1ccc(S(=O)(=O)N2CCCC2)cc1	-33	105	102	-2
86	CC1CCCC(NCCN2CCOCC2)C1 (configuration not stated)	-4	99	100	0
87	CC(C)CN(CC(C)C)C(=O)c1cc2ccccc2oc1=O	5	100	103	2
88	Cn1nc(C(=O)NCCCN2CCOCC2)c2c1-c1ccccc1S(=O)(=O)C2	0	99	100	-23
89	Cn1c(CC23CC4CC(CC(C4)C2)C3)nnc1SCC(N)=O	0	103	100	-4
90	CC(=O)N1CCC(C(=O)O)(c2ccccc2)CC1	-5	103	106	-16
91	Cc1ccc(C)c(SCC(=O)N(C)C)c1	-4	105	102	-6
92	Cc1nc2c(c(C)c1CCC(=O)N1CCC(C)CC1)c(=O)n(C)c(=O)n2C	-15	108	108	-112
93	Fc1ccccc1OCCSc1nc2ccccc2s1	-18	102	101	2
94	COc1ccc(NC(=O)N(Cc2ccccc2)C(=O)CC#N)cc1	-10	109	109	1
95	O=C(NCc1ccco1)C(c1cccs1)N(C(=O)C1COc2ccccc2O1)c1cccc(O)c1 (configuration not stated)	2	100	100	2
96	CCN(Cc1ccccc1)Cc1csc(C)c1C	2	101	102	-10
97	CSc1nnc2c(n1)OC(c1ccccc1)N(C(C)=O)c1ccccc1-2 (configuration not stated)	-80	103	102	-8
98	O=S(=O)(CCN1CCN(C(c2ccccc2)c2ccccc2)CC1)c1ccc(Cl)cc1	-20	100	98	-7
99	CC1=C(C(=O)OC(C)C)C(C2CC=CCC2)NC(=O)N1 (configuration not stated)	-13	105	110	nt
100	CCOC(=O)c1cc(S(=O)(=O)C(C)C)c(SC)s1	0	103	105	13
101	CCc1nnc2sc(-c3ccc(Cl)cc3)nn12	9	100	101	0
102	CCCNC(=O)c1ccc(-c2nc(CS(=O)(=O)c3ccccc3)c(C)o2)cc1	2	102	103	109
103	COc1cccc(NC(=O)CC(NC(C)=O)c2ccccc2)c1 (configuration not stated)	4	101	99	8
104	O=C(CCNS(=O)(=O)c1ccccc1F)N1CCN(c2ccccc2Cl)CC1	-19	105	102	-22
105	Cc1ccc(-n2c(NN)nc3ccccc3c2=O)c(C)c1	-11	102	106	2
106	COc1cccc(CNc2cc(C)c3cccc(OC)c3n2)c1OC	1	100	106	-236
107	CSc1nnc(-c2ccccc2)n1/N=C/c1cc(O)ccc1Cl	-4	100	104	-6
108	O=C(Cn1c(=O)oc2ccccc21)c1ccc(Cl)cc1	2	102	106	6
109	CC(C)NC(=O)C1CC(c2ccc(Cl)cc2)=NO1 (configuration not stated)	14	104	104	-1
110	CCOc1cc(C#N)ccc1OCC(=O)NC1CCCCCC1	-5	102	103	-10
111	O=C(NCCOc1ccccc1F)C1CC(=O)N(Cc2ccccc2)C1 (configuration not stated)	-26	110	108	4
